Rango complex inh – prevents formation of the Rango-importin beta complex; Q14974; Rango CFP/YFP FRET sensor + importin beta, 45 min; Potency, µM (doses to about 92.2 µM), for inactives: top-dose inhibition of complex formation; actives 0.031% (n = 340,000); active = rising FRET ratio curve, often small or poorly fitted; inconclusive = mostly compound fluorescence or quenching in the first reads; inactive = flat curves in all reads;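 further: potency means the concentration at half of the fitted maximal effect; 0% = DMSO wells and 100% = buffer wells lacking importin beta; nearly all actives have a fitted effect of over 15% in size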
Target sequence (Q14974 whole entry, looked up): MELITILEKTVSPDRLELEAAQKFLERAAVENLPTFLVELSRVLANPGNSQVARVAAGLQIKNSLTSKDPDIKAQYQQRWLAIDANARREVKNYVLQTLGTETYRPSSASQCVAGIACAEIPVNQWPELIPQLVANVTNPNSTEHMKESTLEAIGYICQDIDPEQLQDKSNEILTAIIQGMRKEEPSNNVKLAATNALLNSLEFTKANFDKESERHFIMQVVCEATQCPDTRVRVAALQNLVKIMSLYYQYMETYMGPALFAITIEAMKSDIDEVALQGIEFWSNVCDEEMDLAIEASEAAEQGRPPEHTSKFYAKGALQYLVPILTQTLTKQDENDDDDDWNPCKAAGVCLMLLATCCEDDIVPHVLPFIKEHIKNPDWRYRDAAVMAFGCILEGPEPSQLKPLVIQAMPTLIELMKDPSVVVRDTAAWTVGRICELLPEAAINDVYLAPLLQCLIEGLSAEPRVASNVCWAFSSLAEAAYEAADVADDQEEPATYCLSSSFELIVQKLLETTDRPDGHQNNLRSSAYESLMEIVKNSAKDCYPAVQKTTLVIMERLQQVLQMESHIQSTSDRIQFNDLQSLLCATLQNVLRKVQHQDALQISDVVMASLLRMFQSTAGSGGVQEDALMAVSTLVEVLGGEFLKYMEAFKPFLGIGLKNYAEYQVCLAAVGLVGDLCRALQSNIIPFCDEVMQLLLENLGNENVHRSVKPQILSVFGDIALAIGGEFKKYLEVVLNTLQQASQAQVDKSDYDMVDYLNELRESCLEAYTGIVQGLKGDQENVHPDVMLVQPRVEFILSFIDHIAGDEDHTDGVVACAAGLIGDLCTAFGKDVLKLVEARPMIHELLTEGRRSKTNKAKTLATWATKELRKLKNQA
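Inhibition scored from the CFP 486 nm/YFP 530 nm FRET ratio 45 min after adding 0.125 microM importin beta to 50 nM Rango biosensor preincubated 5 min with compound (room temperature, PBS with DTT, Tween-20, BSA). No-importin wells as positive control.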
GLA inh pH 4.5 – blocks human alpha-galactosidase A at pH 4.5; purified enzyme, 4-MU-alpha-Gal fluorescence, pH 4.5; AID 1467; activity change, negative = inhibition, % at 105 µM; 230,000 tested, under 10 active; P06280; inconclusive = small, poorly fitted or top-dose-only inhibition, or a rising curve; inactive = flat fitted curve, though single readings scatter; no compound was filed as active;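 further: 0% = full activity with enzyme and -100% = basal without enzyme; dose as in the result columns while the protocol names 77 µM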
miR-21 FLuc – miR-21 reporter, rising signal. HeLa miR-21 FLuc reporter, luciferase, 48 h. Potency, µM (doses to about 38.3 µM), for the others: at the top dose reporter change, positive = more light. 340,000 tested, under 10 active; active = well fitted rising curve with a large enough effect; inconclusive = small, poorly fitted or top-dose-only effect; inactive = no such curve, though single readings can be large or run the other way;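 further: % of control where 0% means no effect; miR-21 action dims this reporter so a rising signal means less miR-21 action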
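Compounds were titrated across several concentrations (up to approximately 40 uM) and incubated 48 hours with HeLa miR-21-FLuc reporter cells (miR-21 target sequence downstream of FLuc, endogenous miR-21). Readout was firefly luciferase luminescence after lytic detection reagent.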
Rango dissoc inh – inhibitors of RanGTP-induced Rango-importin beta complex dissociation; Biochemical FRET Rango-importin beta, RanGTP-induced dissociation; Potency, µM (highest dose often 46.1 µM), without a hit: top-dose activity change, negative = inhibition; O95149+P62826; actives 0.071% (n = 340,000); active means falling FRET ratio curve, often poorly fitted, with flat reads before Ran was added; inconclusive means other falling curves, or compound fluorescence or quenching; inactive means flat or rising ratio curve;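 further: potency means the concentration at half of the fitted maximal effect; % of control where 0% means no effect; nearly all actives have a fitted effect of over 45% in size; -100% = wells without RanGTP and RCC1; the record marks most hits as doubtful in a second field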
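Two FRET readings bracket the reaction: one 5 min after compound meets Rango–importin beta, another 45 min after RanGTP-RCC1 (0.6 uM Ran, 0.2 uM RCC1, 2 mM GTP) is added. Only the second defines inhibition.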
* = called active by the depositor; ? = inconclusive; / = not tested or not shown; & = joins results of further samples; [ ] = remark or other dose. Only part of the results is shown, so the mix of outcomes need not match the whole.

SMILES	GLA inh pH 4.5	Rango dissoc inh	Rango complex inh	miR-21 FLuc
Cc1c(NS(=O)(=O)c2ccc(N3CCCCC3)c([N+](=O)[O-])c2)c(=O)n(-c2ccccc2)n1C	-2	5%	-0.1%	-2%
O=c1[nH][nH]c(=S)n1C1CCCCC1	4	19%	-0.7%	0%
CCc1cccc(C)c1NS(=O)(=O)c1cc(Br)cnc1N	/	10%	4.1%	4%
COc1ccccc1N1CCN(S(=O)(=O)/C=C/c2ccccc2)CC1	9	-9%	-2.9%	0%
CCOC(=O)/C=C1\SCC(=O)N1CC(=O)NC(C)c1ccc(F)cc1 (stereo not given)	-3	2%	0.1%	1%
Cc1cccc(NC(=O)CSc2nc3[nH]ncc3c(=O)[nH]2)c1	3	-3%	-1.2%	5%
COc1cccc2cc(C(=O)NC3CC4CCC3C4)oc12 (stereo not given)	/	3%	2.2%	-20%
CCCCC(=O)Oc1c(S(=O)(=O)c2ccccc2)c(C)nn1C(C)(C)C	/	-15%	-4.8%	11%
Cc1nc(C)n(C(C)CNC(=O)c2ccccc2)n1 (stereo not given)	/	-14%	-1.6%	-3%
Cc1ccc(Cl)cc1N1CCN(Cc2cc(=O)n3ccsc3n2)CC1	11	-19%	-1.9%	6%
Cc1cc(C)n(Cc2ccccc2F)c(=O)c1C#N	10	-10%	0.9%	-15%
O=C(Nc1cccc([N+](=O)[O-])c1)Nn1cnnc1	/	-15%	-4.9%	-2%
CC(/C=C1\SC(=O)N(CCCC(=O)O)C1=O)=C\c1ccccc1	-11	1%	0.1%	?
CCn1c(SCC(=O)N2CC(C)OC(C)C2)nc2c([nH]c3ccccc32)c1=O (stereo not given)	/	-2%	1.9%	1%
O=C(CCC(=O)N1CCOc2ccccc21)NCc1ccccn1	/	12%	-0.9%	1%
COc1cc2c(cc1OC)C(C(=O)NCC1COc3ccccc3O1)C(c1cccnc1)N(C)C2=O (stereo not given)	4	-3%	3.4%	-8%
CC1CN(C(=O)c2cccc(Oc3ccccc3)c2)CC(C)O1 (stereo not given)	/	-2%	1.6%	4%
Clc1ccc(-n2nnnc2CN2CCOCC2)cc1	-2	-6%	4.5%	-2%
COc1ccc(NC(=O)C(C)Sc2nnc(C3CC3)n2C2CC2)cc1 (stereo not given)	/	12%	-0.5%	/
CCC(C)N1C(=O)S/C(=C/c2ccc(Sc3nc4ccccc4[nH]3)o2)C1=O (stereo not given)	-8	5%	?	?
Cc1cccn2c(=O)nc(SCC(=O)c3ccccc3)nc12	/	-19%	1.3%	/
CCc1ccc(-c2cc3c(=O)n(CC(=O)NCCCN4CCN(Cc5ccccc5)CC4)nc(C)n3n2)cc1	/	12%	0.3%	-9%
Cc1ccc(S(=O)(=O)c2cc3c(=O)n4ccccc4nc3n(CCc3ccccc3)c2=N)cc1	/	?	?	0%
CC(C)(Oc1ccc(Cl)cc1)C(=O)NC1=NN(c2ccccc2)C(=O)C1	-12	24%	-5.5%	2%

Of the compounds above, 3 contain a Cl atom:
SMILES	GLA inh pH 4.5	Rango dissoc inh	Rango complex inh	miR-21 FLuc
Cc1ccc(Cl)cc1N1CCN(Cc2cc(=O)n3ccsc3n2)CC1	11	-19%	-1.9%	6%
Clc1ccc(-n2nnnc2CN2CCOCC2)cc1	-2	-6%	4.5%	-2%
CC(C)(Oc1ccc(Cl)cc1)C(=O)NC1=NN(c2ccccc2)C(=O)C1	-12	24%	-5.5%	2%

Remaining list, next part:
SMILES	GLA inh pH 4.5	Rango dissoc inh	Rango complex inh	miR-21 FLuc
CCc1ccc(C(C)NC(=O)c2cccs2)cc1 (stereo not given)	/	0%	1.9%	/
COc1ccc(C(=O)C[n+]2cccc3cc(C)ccc32)cc1	/	18%	-3.0%	19%
COc1cccc(O[C@@H]2O[C@@H]3COC(C)(C)O[C@H]3[C@H](O)[C@H]2NC(C)=O)c1	-2	2%	0.2%	-1%
CC(C)(C)OC(=O)N1CCC[C@H]1C(=O)NCc1ccc(Cl)cc1Cl	1	6%	-6.6%	-2%
COc1ccc(CN=C2NC(=O)CC(C(=O)Nc3ccccc3C)S2)cc1 (stereo not given)	2	16%	11%	-5%
COc1cc(OC)cc(C(=O)N2CCCC(c3nc(-c4ccc(C)o4)no3)C2)c1 (stereo not given)	/	1%	0.4%	-9%
Cc1ccc(NC(=O)c2cccc(S(=O)(=O)Nc3c(C)n(C)n(-c4ccccc4)c3=O)c2)cc1C	/	-4%	-2.5%	/
COc1ccc(N2CC(C(=O)OCC(=O)c3ccc(C)cc3)CC2=O)cc1 (stereo not given)	2	9%	6.6%	1%
CSc1cccc(NC(=O)c2nnn(CC(=O)Nc3cc(C)cc(C)c3)c2N)c1	/	6%	-0.3%	-5%
COc1cccc(NC(=O)CN(C)CC(=O)c2c(C)[nH]c3ccccc23)c1	/	-27%	0.0%	/
C=CCNC(=O)C1CCN(C(=O)c2ccc(-c3ccccc3)cc2)CC1	0	2%	0.0%	3%
CC1CC(C)CN(C(=O)/C(=C\c2ccccc2)c2ccccc2)C1 (stereo not given)	-1	-10%	1.5%	-6%
CCC(C)(C)NC(=O)CN(Cc1ccc(F)cc1)C(=O)CCC(=O)Nc1ccccn1	/	-11%	0.4%	-1%
Cc1nn(CC(=O)N(C)Cc2ccccc2)c(=O)c2cccn12	/	-10%	0.0%	-13%
O=[N+]([O-])c1ccc(/C=C/c2nc3ccc([N+](=O)[O-])cc3[nH]2)cc1	-3	-15%	-1.0%	-29%
Cc1ccc(S(=O)(=O)N(C)CC(=O)NCCCn2ccnc2)cc1	/	13%	3.7%	-1%
COc1cccc(-c2nnc(NC(C)=O)o2)c1	3	-1%	4.9%	-24%
COc1cc(/C=C/C(=O)Nc2ccccc2C(F)(F)F)cc(OC)c1OC	8	/	/	-19%
Cn1c(=O)c2c(nc(N/N=C/c3cccs3)n2C)n(C)c1=O	-3	3%	-1.5%	-3%
CCOC(=O)/C(=C\C=C1/Sc2ccccc2N1CC)C(C)=O	-10	?	?	-44%
CCOc1ccccc1O[C@H](c1ccccc1)[C@H]1CNCCO1	/	-11%	0.7%	/
COCCN(C(=O)c1cc2c(s1)CCCCC2)c1c(N)n(Cc2ccccc2)c(=O)[nH]c1=O	/	22%	3.3%	/
Cn1nnnc1SCC(=O)Nc1ccccc1[N+](=O)[O-]	-22	0%	-3.5%	-3%
COC(=O)C1=C(C)NC(C)=C(C(=O)OC)C1C(=O)OCCN1C(=O)c2ccccc2C1=O	-7	-5%&-4%	0.2%&1.3%	-4%
O=[N+]([O-])c1cccc(S(=O)(=O)Nc2cccc(-c3ccc(N4CCCC4)nn3)c2)c1	/	-6%	0.5%	/
CC1=C(C(=O)OC2CCCC2)C(c2ccc(C)o2)C2=C(CC(c3cccs3)CC2=O)N1 (stereo not given)	-13	-18%	-1.2%	0%
O=c1[nH]c(CO)nc2c1oc1ccccc12	-1	27%	2.1%	-5%
Cc1cc(NC(=O)Nc2cccc(C(F)(F)F)c2)no1	-1	17%	0.1%	8%
O=C(Nc1cccc(C(F)(F)F)c1)C1CCCCC1	-2	1%	3.4%	-5%
OCCN1CCN(c2ncnc3sc4c(c23)CCCC4)CC1	/	-1%	?	-16%
CCCN1CCN(S(=O)(=O)c2cc3c(cc2C)NC(=O)CO3)CC1	/	-6%	3.2%	4%
COc1ccc(NS(=O)(=O)c2cccc(C(=O)NNC(=O)CNC(=O)c3cccc(C)c3)c2)cc1	/	-6%	1.8%	-1%
Cc1noc(C(C)C)c1C(=O)Nc1ccc(-c2nnc3n2CCCCC3)cc1	/	21%	?	/
CCNC(=O)NC(=O)C(C)Oc1ccc(C(=O)OC)cc1 (stereo not given)	0	11%	?	-6%
COc1ccc(C)cc1NC(=O)C(Sc1nnnn1C)c1ccccc1 (stereo not given)	0	-6%	-1.1%	-6%
O=S(=O)(Nc1ccccc1N1CCCCC1)c1ccc(F)cc1F	9	25%	1.9%	-7%
COc1ccc(Cn2ccnc2SCC(=O)NC2CCCCC2)cc1	/	9%	-2.8%	0%
O=C(Cc1ccc([N+](=O)[O-])cc1)N/N=C/c1ccccc1F	/	7%	-0.3%	-5%
CCOC(=O)C1(CCc2ccccc2)CCN(C(=O)C(C)n2cncn2)CC1 (stereo not given)	2	-2%	3.9%	3%
COc1cccc(CNC(=O)CCNS(=O)(=O)c2cccc3nsnc23)c1	-1[21.1 µM]	11%	1.6%	-1%&10%
O=C(OCc1cccc([N+](=O)[O-])c1)c1cccnc1Cl	/	7%	0.0%	1%
CS(=O)(=O)NN1C(=O)c2ccccc2NC1c1cccc2cccnc12 (stereo not given)	0	-1%	0.1%	-13%
O=C(C=C1SCCS1)/C=C/c1ccco1	-1	-30%	?	-36%
COc1ccccc1CNC(=O)CN1C(=O)NC2(CCCC2)C1=O	/	-2%	0.4%	/
Cn1c(CS(=O)Cc2c(Cl)cccc2Cl)nnc1SCc1c(Cl)cccc1Cl (stereo not given)	-2	0%	-1.9%	5%
COC(=O)c1ccc(NC(=S)NC(=O)C2CCC2)cc1	/	1%	-1.8%	-28%
C/C=C/c1ccc(OCCCn2cncn2)c(OC)c1	3	-2%	-3.3%	-23%
COC(=O)c1ccc(OC(=O)CN2C(=O)c3ccccc3C2=O)cc1	/	1%	-1.0%	-3%
Cn1c(=NC(=O)COc2ccccc2)sc2ccccc21	6	16%	1.5%	-54%
CC(C)Cn1c(-c2ccco2)nc2c(c(=O)c3ccccc3n2C)c1=O	-2	/	/	-13%
CCN(CC)S(=O)(=O)c1ccc(N2CCCC2)c(NC(=O)c2c(-c3ccccc3)noc2C)c1	/	-5%	0.0%	-3%
COc1ccccc1C(=O)NC1CCCCCCC1	-5	3%	-1.7%	-53%
CN(C)C(=O)C1CC(=O)OC12CCCCC2 (stereo not given)	-20	8%	2.4%	-5%
CCCCSc1nc(SCC(=O)NCc2ccco2)c2c3c(sc2n1)COC(C)(CC)C3 (stereo not given)	-8	0%	1.9%	1%
CC(C)(C)OC(=O)N1CC=C2C(C#N)=C(N)C(C#N)(C#N)[C@H](c3cccnc3)[C@H]2C1	3	?	?	-9%
CC(C)(C)NC(=O)C(=O)N/N=C/c1ccc(Br)cc1	-9	-9%	-3.9%	-18%
CCOc1ccc(NS(=O)(=O)c2c(C(=O)N3CCCCCC3)c(C)n(C)c2C)cc1	/	-3%	-0.4%	0%
Cc1nc(NC(=O)COC(=O)C2=NNC(=O)CC2)c(Cl)cc1Cl	7	-5%	0.4%	3%
Cc1ccc(Cn2nc(C)c(NC(=O)CCCn3nc(C)c([N+](=O)[O-])c3C)c2C)cc1	-11	-5%	0.8%	-2%
Cc1c(C(=O)OCc2nc3ccsc3c(=O)[nH]2)oc2ccccc12	/	-4%	?	/
COc1ccc(CNS(=O)(=O)CCNCc2ccco2)cc1	/	-9%	?	/
CCC(C)(C)NC(=O)C(c1ccc(O)cc1)N(CCOC)C(=O)CCC(=O)Nc1nccs1 (stereo not given)	1	14%	-2.7%	9%
CC(Sc1nc(-c2ccccc2)cc(C(F)(F)F)n1)C(=O)N1CCOCC1 (stereo not given)	0	0%	-5.2%	-10%
